RanGTP-Impb inh = inhibitors of RanGTP-importin-beta interaction, primary screen, biochemical, FRET, CFP-Ran, YFP-importin-beta, homogeneous | cell-free CFP-Ran/YFP-importin-beta FRET ratio | inhibition, % (concentration not given with the values) | 1.1% of 300,000 active;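 active = most replicates above 15%; inconclusive = exactly half above 15%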;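 also: 0% = DMSO wells and 100% = Ran loaded with GDP instead of GTP; wells of about 40 µL received 100 nL stock; the first replicate is given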
T cruzi repl = blocks replication of Trypanosoma cruzi; T. cruzi beta-gal in NIH3T3, luminescence, 90 h; inhibition, % (test concentration not listed); 1.4% of 300,000 active; AID 1885;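 active = mean inhibition across valid replicates above about 55%, limit read from the data; inconclusive = mean below that limit but half or more replicates reach it; inactive = mean below it, under half of replicates reach it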;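 also: signal also drops with host cell toxicity which is not excluded here; 0% = plate median of DMSO wells and 100% = zero luminescence signal; higher percent means less beta-gal luminescence so fewer parasites; stock transfer was 50 nL into about 50 µL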
Calb FLC = affects C. albicans growth with fluconazole; C. albicans CaCi-2 (fluconazole-resistant clinical isolate) + fluconazole, Alamar Blue growth, 48 h; growth inhibition, % (no concentration beside the values); 0.57% of 300,000 active;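 active = most replicates above 75%; inconclusive = exactly half above 75%; inactive = most below 75%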;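 also: all wells also contain fluconazole at 8 µg/ml as a sub-toxic cotreatment; 0% = median of DMSO wells and 100% = median of geldanamycin control wells; wells of about 8 µL received 7.5 nL stock; the first replicate is given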
UCH37 DUB inh = inhibitors of human deubiquitinating enzyme UCH37 | Q9Y5K5 | purified proteasome/UCH37, Ub-AMC cleavage fluorescence | inhibition, % (no concentration beside the values) | 0.33% of 330,000 active | AID 588478;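 active = mean of two replicates above 20%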;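 also: 0% = compound-free wells with enzyme and 100% = wells lacking proteasome; stock transfer was 100 nL into about 20 µL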
Target sequence (Q9Y5K5 whole entry, looked up): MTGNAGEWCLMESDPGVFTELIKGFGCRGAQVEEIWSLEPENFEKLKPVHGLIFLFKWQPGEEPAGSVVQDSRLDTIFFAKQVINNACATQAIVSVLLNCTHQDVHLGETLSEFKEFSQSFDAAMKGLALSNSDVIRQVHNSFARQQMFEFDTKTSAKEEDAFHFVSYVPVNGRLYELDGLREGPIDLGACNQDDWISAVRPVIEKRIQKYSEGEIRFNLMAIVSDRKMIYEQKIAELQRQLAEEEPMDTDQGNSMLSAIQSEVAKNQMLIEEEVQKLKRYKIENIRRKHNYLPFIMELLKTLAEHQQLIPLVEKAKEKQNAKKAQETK
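Material: human UCH37 enzyme supplied as purified proteasome complex / Amount: 0.15 nM proteasome as dispensed / Buffer or medium: pH 7.4 Tris-HCl (50 mM) with ovalbumin, ATP-MgCl2, DTT / Times: preincubation 30 min, reaction 25 min, room temperature / Technique: AMC fluorescence from Ub-AMC cleavage, excitation 355 nm, emission 460 nm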
LANA-H2A inh = blocks KSHV LANA binding to histone H2A/H2B. Q9QR71. cell-free LANA-H2A/H2B peptide, fluorescence polarization. inhibition, % (concentration not given with the values). 0.6% of 320,000 active. AID 2629; in the data active = inhibition mostly above about 10%, no sharp cut-off; inactive = mostly below about 6.7%;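 also: stock transfer was 7.5 nL into about 10 µL; 0% = median of vehicle wells and 100% = median of positive control wells; one replicate is shown; the record names a cut of 25% in any replicate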
Beta cell apopt = beta cell apoptosis inhibition; INS-1E cytokine-induced death, ATP luminescence, 48 h; percent of positive-control rescue, neutral wells zero; protection from apoptosis, % (no concentration beside the values); 0.8% of 300,000 active; AID 435005;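 active = all replicates at 75% or more, or half of them and the mean; inconclusive = half reach 75% but not the mean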;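 also: 0% = cytokine-treated negative control wells and 100% = positive control rescue; higher means more ATP so stronger rescue from cytokine killing; wells of about 40 µL received 100 nL stock; the first replicate is given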
B2AR ag = activates human beta-2 adrenergic receptor causing internalization | P07550 | response, % (concentration not given with the values) | 0.43% of 340,000 active | AID 504454 | Am2.2-beta2AR cells, FAP receptor internalization, flow cytometry; reference of the scale not given here;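 active = response above a set limit, near 3 SD of response in nonfluorescent compounds, cut at about 42% in these data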;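 also: stock transfer was 100 nL into about 11 µL; a reference agonist was the positive control; negative values mostly stem from fluorescent compounds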
Target sequence (P07550 whole entry, looked up): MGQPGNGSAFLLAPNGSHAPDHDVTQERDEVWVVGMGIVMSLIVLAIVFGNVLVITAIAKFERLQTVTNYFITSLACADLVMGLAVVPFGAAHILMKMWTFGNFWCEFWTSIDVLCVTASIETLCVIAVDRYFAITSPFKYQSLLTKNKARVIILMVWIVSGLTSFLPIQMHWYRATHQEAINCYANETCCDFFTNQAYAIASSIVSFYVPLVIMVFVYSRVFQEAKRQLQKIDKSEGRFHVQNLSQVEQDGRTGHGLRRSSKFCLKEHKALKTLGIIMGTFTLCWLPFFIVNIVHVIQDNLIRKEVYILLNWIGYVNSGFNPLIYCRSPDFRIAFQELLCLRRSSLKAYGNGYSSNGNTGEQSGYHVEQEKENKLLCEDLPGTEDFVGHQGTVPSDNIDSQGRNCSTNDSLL
A1 inh = inhibitors of the anti-apoptotic protein A1, read as caspase activation | MEF A1-2A-BIM cells, Caspase-Glo 3/7 luminescence, 3 h; percent of clofoctol response, vehicle zero | caspase activation, % (test concentration not listed) | 0.066% of 330,000 active;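 active = over half of replicate activation scores above 10%, or exactly half above 10 with the replicate mean above 10; inconclusive = replicate mean below 10 yet half the replicates above 10; inactive = over half of replicates below 10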;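 also: wells of about 30 µL received 50 nL stock; many hits fall short of the cut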
Active calls of the source: *.

What do the screens show for `CNC(=O)C1CCN(S(=O)(=O)c2c(C)noc2/C=C/c2cccc(OC)c2)CC1`?
RanGTP-Impb inh: inconclusive; T cruzi repl: 4; Calb FLC: -3; UCH37 DUB inh: -52; LANA-H2A inh: -0.7; Beta cell apopt: 2; B2AR ag: 2; A1 inh: 0.3

Results for C#CCNC(=O)C1=C[C@H](c2coc3ccccc3c2=O)C[C@H](OCCCCO)O1 ?
RanGTP-Impb inh: 3.2; T cruzi repl: -14; Calb FLC: -2; UCH37 DUB inh: -0.3; LANA-H2A inh: -0.4; Beta cell apopt: -8; B2AR ag: -3; A1 inh: -2.0

Results for CSCCC1NC(=O)NC1=O (configuration not stated) ?
RanGTP-Impb inh: -0.3; T cruzi repl: -8; Calb FLC: -1; UCH37 DUB inh: -2.4; LANA-H2A inh: -1.5; Beta cell apopt: -6; A1 inh: inconclusive

How did CCc1ccc(-c2csc(NC(=O)C3CC(=O)N(c4ccc5c(c4)OCCO5)C3)n2)cc1 (configuration not stated) do in these assays?
RanGTP-Impb inh: -5.9; T cruzi repl: 0; Calb FLC: -7; UCH37 DUB inh: 0.1; LANA-H2A inh: -0.3; Beta cell apopt: -4; B2AR ag: 12; A1 inh: 1.6

What do the screens show for `CN=c1sc2ccccc2n1CC(O)COc1ccccc1` (configuration not stated)?
T cruzi repl: -6; Calb FLC: -1; UCH37 DUB inh: 3.3; LANA-H2A inh: -2.8; Beta cell apopt: 5; B2AR ag: -5; A1 inh: -0.7

How did Cc1nc(N2CCN(C(=O)c3ccco3)CC2)nc2c1C(=O)CC(C)C2 (configuration not stated) do in these assays?
RanGTP-Impb inh: 1.9; T cruzi repl: -9; Calb FLC: -9; UCH37 DUB inh: 3.4; LANA-H2A inh: -0.8; Beta cell apopt: 3; B2AR ag: -7; A1 inh: -0.2

Results for O=C(NCc1ccccc1Br)c1ccc2c(c1)OCCO2 ?
RanGTP-Impb inh: 1.6; T cruzi repl: 3; Calb FLC: 2; UCH37 DUB inh: 3.4; LANA-H2A inh: 2.5; B2AR ag: -2; A1 inh: -0.5

Results for Cc1ccc(-c2noc(-c3ccccc3Br)n2)cc1 ?
RanGTP-Impb inh: 0.5; Calb FLC: -2; UCH37 DUB inh: 1.7; LANA-H2A inh: -3.0; Beta cell apopt: -1; B2AR ag: -4; A1 inh: -6.2

How did Cc1oc(-c2ccccc2F)nc1CS(=O)(=O)CC(=O)N1CCN(c2ccccc2)CC1 do in these assays?
RanGTP-Impb inh: 6.2; T cruzi repl: -9; Calb FLC: 0; UCH37 DUB inh: 5.3; LANA-H2A inh: -1.5; Beta cell apopt: 2; B2AR ag: 4; A1 inh: -0.4

How did CSCCNC(C)=O do in these assays?
RanGTP-Impb inh: 2.1; T cruzi repl: -11; Calb FLC: -4; LANA-H2A inh: 0.0; Beta cell apopt: 0; A1 inh: -0.9

Results for Cc1ccc(-c2nnc(Nc3ccc(CC(N)=O)cc3)c3ccccc23)cc1S(=O)(=O)NCC1CCCO1 (configuration not stated) ?
RanGTP-Impb inh: 0.4; T cruzi repl: 12; Calb FLC: -1; UCH37 DUB inh: 4.9; LANA-H2A inh: -5.0; Beta cell apopt: 2; B2AR ag: 2; A1 inh: 0.5

How did CCOc1ccccc1/C=C(/NC(=O)c1ccccc1)C(=O)NCC(=O)O do in these assays?
RanGTP-Impb inh: 1.9; T cruzi repl: -6; Calb FLC: -5; UCH37 DUB inh: 7.7; LANA-H2A inh: 2.3; Beta cell apopt: -16; B2AR ag: 5; A1 inh: 0.7

Results for Cc1ccc(CN2[C@@H](CC3CCCCC3)COCCS2(=O)=O)cc1 ?
RanGTP-Impb inh: 1.7; T cruzi repl: 3; Calb FLC: 1; UCH37 DUB inh: 0.3; LANA-H2A inh: 1.4; Beta cell apopt: 0; B2AR ag: -3; A1 inh: 0.8

How did CC12CCC(C(=O)N/N=C/c3ccc(O)cc3O)(OC1=O)C2(C)C (configuration not stated) do in these assays?
RanGTP-Impb inh: -0.6; T cruzi repl: 10; Calb FLC: 0; B2AR ag: -5

What do the screens show for `COc1cccc2cc(C(=O)Nc3ccc(S(=O)(=O)NCC4CCCO4)cc3)c(=O)oc12` (configuration not stated)?
RanGTP-Impb inh: 3.6; T cruzi repl: -5; Calb FLC: -8; UCH37 DUB inh: -15; LANA-H2A inh: -5.9; Beta cell apopt: 12; B2AR ag: 2; A1 inh: -6.2

How did COc1cc2c(cc1OC)CN(CC(=O)Nc1ccc(S(=O)(=O)N3CCCC3)cc1)CC2 do in these assays?
RanGTP-Impb inh: 10; T cruzi repl: 8; Calb FLC: 3; UCH37 DUB inh: -20; LANA-H2A inh: 1.4; Beta cell apopt: 5; B2AR ag: 5; A1 inh: -1.2

How did CN(C)S(=O)(=O)c1ccc(Cl)c(NC(=O)COC(=O)c2ccc3c(c2)NC(=O)CS3)c1 do in these assays?
RanGTP-Impb inh: 7.9; T cruzi repl: -6; Calb FLC: -8; UCH37 DUB inh: -1.5; LANA-H2A inh: -4.8; Beta cell apopt: -3; B2AR ag: -1; A1 inh: 0.0

Results for COc1ccc(N(CC(=O)NCc2cccs2)S(=O)(=O)c2ccc(F)cc2)cc1 ?
UCH37 DUB inh: 2.3; LANA-H2A inh: -6.4; Beta cell apopt: -6; B2AR ag: -2; A1 inh: -0.3

Results for COc1ccc(Cl)cc1NC(=O)C(C)NC(c1ccccc1)c1ccccc1 (configuration not stated) ?
RanGTP-Impb inh: 0.2; T cruzi repl: 35; Calb FLC: -1; UCH37 DUB inh: 1.1; LANA-H2A inh: 1.0; Beta cell apopt: 3; B2AR ag: 0; A1 inh: 0.1

What do the screens show for `COc1cccc(NC(=O)c2sc3nc(N4CCOCC4)c4c(c3c2N)CCCC4)c1`?
RanGTP-Impb inh: 2.3; T cruzi repl: 41; Calb FLC: -3; UCH37 DUB inh: -454; LANA-H2A inh: 3.1; B2AR ag: 18; A1 inh: -0.5

Results for CCCCOC(=O)c1ccc(NC(=O)C(=O)CC(=O)c2ccc(OC)cc2)cc1 ?
RanGTP-Impb inh: -3.8; T cruzi repl: -5; Calb FLC: -4; UCH37 DUB inh: -85; LANA-H2A inh: -1.5; Beta cell apopt: 9; B2AR ag: 6; A1 inh: -0.3

How did COC(=O)c1nc(NC(=O)C(C)(C)C)n[nH]1 do in these assays?
RanGTP-Impb inh: 0.2; T cruzi repl: 5; Calb FLC: 12; UCH37 DUB inh: 4.5; LANA-H2A inh: -1.4; B2AR ag: -2; A1 inh: 0.5

How did O=C(OCC(=O)N1CCN(C(=O)c2ccco2)CC1)c1ccccc1 do in these assays?
RanGTP-Impb inh: 3.2; T cruzi repl: -13; Calb FLC: -24; UCH37 DUB inh: 0.3; Beta cell apopt: 3; B2AR ag: -6; A1 inh: 0.3

What do the screens show for `Cc1ccc2cc(C#N)c(NCCNC(=S)NCCCN3CCOCC3)nc2c1`?
RanGTP-Impb inh: 3.4; T cruzi repl: 5; Calb FLC: -4; UCH37 DUB inh: -69; LANA-H2A inh: -2.2; Beta cell apopt: -8; B2AR ag: -1; A1 inh: -0.7

Results for CC(C)Cc1nnc(NC(=O)CCC(=O)NC2CCCC2)s1 ?
RanGTP-Impb inh: -5.1; T cruzi repl: 4; Calb FLC: 4; UCH37 DUB inh: 1.9; LANA-H2A inh: -3.2; Beta cell apopt: -5; B2AR ag: 4; A1 inh: 0.8

Results for CC(C)CN1C(=O)C(=O)N(CC(=O)c2ccc3c(c2)OCO3)C1=O ?
RanGTP-Impb inh: 3.9; T cruzi repl: -18; Calb FLC: 1; UCH37 DUB inh: -0.2; Beta cell apopt: -5; B2AR ag: -7; A1 inh: 0.2

Results for CC12CCC(=O)N1C(C(=O)N1CCN(S(=O)(=O)c3ccc(Br)cc3Cl)CC1)CS2 (configuration not stated) ?
RanGTP-Impb inh: -0.4; T cruzi repl: -14; Calb FLC: 2; UCH37 DUB inh: 0.5; LANA-H2A inh: 2.1; Beta cell apopt: 4; B2AR ag: -12; A1 inh: 0.2

How did COCCNc1ncnc2c1nc1n2CCCC1 do in these assays?
RanGTP-Impb inh: -7.5; T cruzi repl: 5; Calb FLC: 8; UCH37 DUB inh: -0.8; LANA-H2A inh: 3.0; Beta cell apopt: 2; B2AR ag: -13; A1 inh: 0.0

How did N#Cc1cccc(NC(=O)CCc2ccc(S(=O)(=O)N3CCOCC3)cc2)c1 do in these assays?
UCH37 DUB inh: 2.8; LANA-H2A inh: -9.0; Beta cell apopt: -2; B2AR ag: -5; A1 inh: 1.1

What do the screens show for `CC(C)c1nnc(SCC(=O)N2CCN(C(=O)c3ccco3)CC2)n1N`?
RanGTP-Impb inh: -1.1; T cruzi repl: 7; Calb FLC: 5; UCH37 DUB inh: 1.3; LANA-H2A inh: 1.3; Beta cell apopt: -10; B2AR ag: 11; A1 inh: 1.6

2 compounds picked at random from those above, as already listed:
How did COCCNc1ncnc2c1nc1n2CCCC1 do in these assays?
RanGTP-Impb inh: -7.5; T cruzi repl: 5; Calb FLC: 8; UCH37 DUB inh: -0.8; LANA-H2A inh: 3.0; Beta cell apopt: 2; B2AR ag: -13; A1 inh: 0.0

Results for COc1ccc(Cl)cc1NC(=O)C(C)NC(c1ccccc1)c1ccccc1 (configuration not stated) ?
RanGTP-Impb inh: 0.2; T cruzi repl: 35; Calb FLC: -1; UCH37 DUB inh: 1.1; LANA-H2A inh: 1.0; Beta cell apopt: 3; B2AR ag: 0; A1 inh: 0.1

(further entries)
What do the screens show for `CCCN(CC(=O)Nc1ccccc1C)CC(=O)Nc1ccc(Br)cc1F`?
RanGTP-Impb inh: 1.2; T cruzi repl: 7; Calb FLC: -2; UCH37 DUB inh: 6.2; LANA-H2A inh: -1.1; Beta cell apopt: -1; B2AR ag: -8; A1 inh: -0.1

Results for Cc1ccccc1Cn1cc(NC(=O)CSc2nc3c(c(C(F)(F)F)n2)CCc2ccccc2-3)cn1 ?
RanGTP-Impb inh: -3.0; T cruzi repl: 13; Calb FLC: -17; UCH37 DUB inh: -4.6; LANA-H2A inh: 0.3; Beta cell apopt: 0; B2AR ag: 3; A1 inh: 0.5

How did Cc1cc(C)n(C(=O)COc2c(C)cccc2C)n1 do in these assays?
RanGTP-Impb inh: -0.1; T cruzi repl: 5; UCH37 DUB inh: -1.0; LANA-H2A inh: -10; Beta cell apopt: -1; B2AR ag: -13; A1 inh: 2.9

How did O=C(Nc1ccccc1Cl)c1sccc1-c1ccccc1 do in these assays?
RanGTP-Impb inh: -4.1; T cruzi repl: 9; Calb FLC: 6; UCH37 DUB inh: 4.0; LANA-H2A inh: -3.5; Beta cell apopt: -2; B2AR ag: -11; A1 inh: -0.3

What do the screens show for `Cc1ccc(OCC(=O)N(Cc2cccc(F)c2)C2CCS(=O)(=O)C2)cc1` (configuration not stated)?
RanGTP-Impb inh: 2.9; T cruzi repl: 22; Calb FLC: 3; UCH37 DUB inh: 1.7; LANA-H2A inh: 1.8; Beta cell apopt: -2; B2AR ag: -3; A1 inh: -1.0

Assay outcomes (PubChem)

The order is random; about 4.3% have a hit in one of these screens.
